MT1-MMP act inh = blockers of MT1-MMP proenzyme processing, primary screen, HT1080 RFP-PRO-GFP cells, GFP/RFP fluorescence | Matrix metalloproteinase-14 (Homo sapiens), P50281 | GFP/RFP ratio fluorescence, overnight; percent of plate control window, DMSO zero | GFP/RFP ratio change, % at 20 µM | 0.061% of 360,000 active | AID 651647, 2012;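 active means GFP/RFP ratio change of at least 30% with cell ATP level not reduced by more than half and red fluorescence within 50% of control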; further: strong numbers were not always called active
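Material: RFP-PRO-GFP reporter HT1080 cells. Dosing: single-point 20 µM compound, 1% DMSO. Controls: DMSO and RFP-L50D-GFP cell wells. Timing: cells overnight before dosing, compound overnight, 37 °C, 5% CO2. Measure: GFP/RFP fluorescence ratio.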
PABP polyA inh = PABP poly(A) RNA binding inhibitors, primary screen, biochemical, fluorescence polarization, uHTS; 1% of 290,000 active; inhibition, % at 35 µM; Polyadenylate-binding protein 1 (Homo sapiens), P11940; AID 2014, 2009;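 active means 50% or more with normal probe brightness, or confirmed in later tests; about a fifth of its hits are not listed in these tables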;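 further: calls also rest on retests at 20 µM and on dose response follow-up; controls were probe without protein and protein plus probe with vehicle; some compounds called inactive have numbers as strong as hits; many hits fall short of the cut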
Target sequence (P11940 whole entry, looked up): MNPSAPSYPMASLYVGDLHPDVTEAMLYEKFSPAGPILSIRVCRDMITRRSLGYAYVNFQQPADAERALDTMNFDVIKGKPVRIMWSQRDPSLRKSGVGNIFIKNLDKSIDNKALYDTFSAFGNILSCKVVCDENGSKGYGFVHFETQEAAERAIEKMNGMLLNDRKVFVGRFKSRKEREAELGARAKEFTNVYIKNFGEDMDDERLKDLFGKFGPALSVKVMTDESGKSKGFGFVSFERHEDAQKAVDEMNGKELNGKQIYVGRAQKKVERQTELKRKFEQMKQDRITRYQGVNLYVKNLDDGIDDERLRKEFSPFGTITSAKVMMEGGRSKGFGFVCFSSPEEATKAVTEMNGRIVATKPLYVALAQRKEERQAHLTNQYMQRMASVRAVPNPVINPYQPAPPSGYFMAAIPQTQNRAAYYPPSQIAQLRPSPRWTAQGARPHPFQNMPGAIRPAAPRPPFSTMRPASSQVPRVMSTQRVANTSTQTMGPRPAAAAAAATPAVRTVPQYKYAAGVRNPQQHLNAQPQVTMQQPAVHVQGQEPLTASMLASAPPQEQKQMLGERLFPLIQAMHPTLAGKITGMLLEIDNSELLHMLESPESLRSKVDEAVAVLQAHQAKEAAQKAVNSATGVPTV
UUG fidelity = modulators of yeast start codon fidelity, primary screen, whole organism, S. cerevisiae, single point, plate reader. S. cerevisiae UUG-firefly luciferase reporter, luminescence/redox ratio. AID 602363, 2012. activity score, % at 18.7 µM. 0.13% of 350,000 active;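 active means replicate mean at a twofold rise or more, about +100% in these data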;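 further: firefly luciferase made from a UUG start codon reports start codon fidelity; reporter light over untreated wells divided by growth signal over untreated wells; some hits fall short of that in this replicate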
CSC inhib = cancer stem cell viability inhibitors, primary screen, luminescence; 1.1% of 300,000 active; inhibition, % at 7.5 µM; cancer stem cell-like cells viability;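 active means mean at 75% or more and at least half the replicates too; tested in HMLE shEcad cells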;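 further: 0% = median of negative and 100% = median of positive control wells; the first replicate is given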
HIV Env fusion = inhibitors of HIV-1 Env-driven cell-cell fusion, primary screen, HeLa-JRFL effector, CEM21 target cells, luciferase; inhibition, % at 12.3 µM; 1.1% of 360,000 active; AID 651610, 2012;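 active means mean replicate inhibition score of at least 50 and every replicate individually at or above 50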;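 further: 0% = plate neutral controls and 100% = maraviroc near 300 nM; one replicate is shown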
Rce1 inh = yeast Rce1p protease inhibitors, primary screen, biochemical, fluorescence, cell-free homogeneous; yeast membranes, quenched prenylated peptide cleavage fluorescence; calls only; 0.27% of 290,000 active; AID 2563, 2010;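 active means fall in fluorescence gain of 50% or more versus controls, with final raw signal at or below 3038400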;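 further: plate controls were neutral control wells for no effect and wells lacking membranes for full effect; tested at 10 µM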
Target sequence (Q03530 whole entry, looked up): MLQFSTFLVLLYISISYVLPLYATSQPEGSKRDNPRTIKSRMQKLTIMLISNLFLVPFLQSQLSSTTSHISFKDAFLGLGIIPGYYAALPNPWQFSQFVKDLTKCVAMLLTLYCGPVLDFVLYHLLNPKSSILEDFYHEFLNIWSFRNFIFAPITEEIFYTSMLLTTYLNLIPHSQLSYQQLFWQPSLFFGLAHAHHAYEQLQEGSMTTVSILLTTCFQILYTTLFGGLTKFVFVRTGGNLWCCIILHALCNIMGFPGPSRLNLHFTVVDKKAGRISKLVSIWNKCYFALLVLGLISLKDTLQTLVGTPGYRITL
eIF4H FP inh = human eIF4H binding inhibitors, primary screen, translation initiation inhibitor project, biochemical, uHTS, fluorescence polarization. Eukaryotic translation initiation factor 4H (Homo sapiens), Q15056. eIF4H fluorescence polarization binding assay. inhibition, % at 35 µM. 0.94% of 290,000 active. AID 2012, 2009;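 active means 50% or more with normal probe brightness, or confirmed in later tests; about a fifth of its hits are not listed in these tables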;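 further: calls also rest on retests at 20 µM and on dose response follow-up; 0% = protein and probe with vehicle and 100% = probe without protein; strong numbers were not always called active; many hits fall short of the cut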
eIF4H FP inh retest = recorded beside eIF4H FP inh, whose call it bears; inhibition, %; compound at 20 µM; confirmation average;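 mean of two retest wells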
PABP polyA inh retest = recorded beside PABP polyA inh, whose call it bears; inhibition, %; compound at 20 µM; confirmation repeats;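 mean of two retest wells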
MT1-MMP act inh RFP = further read-out of MT1-MMP act inh, marked with its call; RFP signal change, %; measured here: RFP expression control read;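 0 = vehicle wells; hits needed this value within 50% of zero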
Active calls of the source: *; i = inactive; / = not tested or not shown; + = active, no number. Only part of the results is shown; rates above refer to the full screens.

A first look (3 entries):
SMILES	MT1-MMP act inh	MT1-MMP act inh RFP	PABP polyA inh	UUG fidelity	CSC inhib	HIV Env fusion	Rce1 inh	eIF4H FP inh	others
CCCCOc1ccc(-c2nnn(C(C)(C)C(=O)OC)n2)cc1	-1	-7	3	-5	-1	20	i	5
COc1ccc(COC(=O)NNC(=O)c2ccc(OC)cc2)cc1	2	-4	57	17	5	/	i	-3	eIF4H FP inh retest=-7;PABP polyA inh retest=1
CSc1nncc(-c2ccc(F)cc2)n1	3	7	-8	-19	-8	/	i	-7

Results, from the first entry:
SMILES	MT1-MMP act inh	MT1-MMP act inh RFP	PABP polyA inh	UUG fidelity	CSC inhib	HIV Env fusion	Rce1 inh	eIF4H FP inh	others
CCCCOc1ccc(-c2nnn(C(C)(C)C(=O)OC)n2)cc1	-1	-7	3	-5	-1	20	i	5
COc1ccc(COC(=O)NNC(=O)c2ccc(OC)cc2)cc1	2	-4	57	17	5	/	i	-3	eIF4H FP inh retest=-7;PABP polyA inh retest=1
CSc1nncc(-c2ccc(F)cc2)n1	3	7	-8	-19	-8	/	i	-7
Cc1cccc(NC(=O)CSCC(=O)N(CCC(C)C)c2c(N)n(Cc3ccccc3)c(=O)[nH]c2=O)c1	-4	-8	/	/	-13	-1	i	/
Cc1[nH]nc2c1C(c1ccccc1F)NC2=O (centres undefined)	1	3	2	-15	-8	-47	i	-4
COc1ccccc1N=C(C)C1=C(O)CC(c2ccccc2)CC1=O (centres undefined)	1	-3	-2	/	41	-70	i	1
O=C(CNC(=O)c1ccncc1)N/N=C/c1cc(Br)ccc1OCc1ccccc1	0	-9	-4	/	-1	4	i	-9
COCc1nnc(NC(=O)c2ccc(S(=O)(=O)N(C)C3CCCCC3)cc2)o1	-1	-5	-11	-38	-10	-67	i	5
S=c1nc(COc2ccccc2)[nH]c2ccccc12	-12	-6	0	-21	4	-30	i	-8
CCCNC(=O)C1(C)CCCN(C(=O)c2sccc2C)C1 (centres undefined)	5	3	/	-18	/	-8	/	/
CCCn1c(-c2cc(OC)c(OC)c(OC)c2)nc2nc3ccccc3nc21	11	5	-1	-3	-9	-82	i	-6
CCCn1c(C(C)Nc2nc(-c3ccc(Cl)c([N+](=O)[O-])c3)cs2)nc2cc(Cl)c(N3CCCCC3)cc21 (centres undefined)	7	0	3	2	2	/	i	-4
CCC/S(CC1CC1(Cl)Cl)=N\S(=O)(=O)c1ccc(C)cc1 (centres undefined)	2	-1	1	-10	0	-25	i	-4
COC(=O)C1CN(C(=O)COc2cc(C)cc(C)c2)c2ccccc2O1 (centres undefined)	-4	3	-8	-5	4	6	i	-13
Cc1ccc2c(c1)N(CC(=O)NCCCc1ccccc1)C(=O)c1cccnc1O2	-2	0	-2	6	/	-4	i	2
CCCCNC(=O)NS(=O)(=O)c1ccc(NC(=O)C(NC(N)=O)C(C)CC)cc1 (centres undefined)	1	2	-1	-13	-4	-13	i	-1
Cc1cc(C)c(S(=O)(=O)Nc2ccccc2)c(C)c1	2	1	/	-12	/	6	/	/
C=CCNC(=O)C1CC(=O)N(c2ccc(C)cc2)C1 (centres undefined)	-1	2	1	-2	19	-23	i	-6
Cc1ccc(S(=O)(=O)N2CCN(C(=O)COC(=O)/C=C/c3cccc(Cl)c3)CC2)c(C)c1	4	2	/	-3	/	-5	/	/
CCOc1c(Cl)cc(/C=N/O)cc1OC	-8	-4	2	0	-11	/	i	-2
O=C(OCCc1cc2ccccc2c(=O)o1)c1cccc(Br)c1	-2	1	/	-14	14	-1	/	/
COc1ccccc1OCc1ccc(C(=O)NCC(C)C)o1	-7	-4	5	/	-11	-58	/	5
O=C(c1cc2c(s1)CCCC2)N1CCN(Cc2ccc3c(c2)OCO3)CC1	1	-10	12	/	/	/	i	-12
Cc1cc(NC(=O)COC(=O)c2ccco2)no1	0	2	-3	/	-8	-8	i	-6
Cc1ccc(OCCC(=O)OCC(=O)NC(=O)NCc2ccccc2)cc1	3	2	/	/	/	-10	i	/

Reprinted from the part before: 2 compounds; new compounds follow.
SMILES	MT1-MMP act inh	MT1-MMP act inh RFP	PABP polyA inh	UUG fidelity	CSC inhib	HIV Env fusion	Rce1 inh	eIF4H FP inh	others
Cc1cc(NC(=O)COC(=O)c2ccco2)no1	0	2	-3	/	-8	-8	i	-6
Cc1ccc(OCCC(=O)OCC(=O)NC(=O)NCc2ccccc2)cc1	3	2	/	/	/	-10	i	/
O=C(COC(=O)CN1C(=O)c2ccccc2C1=O)NC1CCCC1	1	4	-10	-1	-13	-2	i	-6
Cc1nnc(SCC(=O)NCC2CCCCC2)n(N)c1=O	1	-1	-2	-13	-10	/	i	-5
COc1cccc(NC(=O)COC(=O)c2cc(S(=O)(=O)N3CCOCC3)ccc2C)c1	6	-6	3	-12	-5	-38	i	-3
CCCNC(=O)Nc1cccc(NC(C)=O)c1	-3	2	-8	-12	-13	7	i	-3
Cc1ccc(S(=O)(=O)N2CCN(C(=O)CCn3cncn3)CC2)cc1	-3	2	-8	-2	3	8	i	-3
O=C1CC(NS(=O)(=O)c2ccc([N+](=O)[O-])cc2)CN1c1cccc(F)c1 (centres undefined)	6	1	/	-6	-20	/	i	/
COc1cc(/C=N/NC(=O)CC(=O)NC2CCCCC2)ccc1O	5	5	4	-20	/	3	i	-2
Cc1ccc(NC(=O)CN2CCCCC2)c2c1CC(C)(C)O2	1	7	-1	/	5	-1	i	-11
Cc1ccc(N/N=C(\C#N)C(=N)N2CCCCCC2)cc1	-1	1	-12	/	4	-60	i	1
CCOC(=O)CCNC(=O)c1ccc2nc(C3CCCCC3)oc2c1	3	3	2	6	8	-4	i	-1
O=C(O)CCCC(=O)NNC(=O)c1cccc(Br)c1	3	4	0	2	-14	-5	i	-6
Cc1cc(OCc2nn[nH]n2)c2c(-c3ccccc3)cc(=O)oc2c1	1	4	26	-18	0	-94	i	-3
COc1cccc(CN2CCN(Cc3c(C)nn(C(C)C)c3C)CC2CCO)c1 (centres undefined)	1	-2	-12	-9	-1	0	i	-15
CC1CCN(S(=O)(=O)c2ccc(NC(=O)c3ccco3)cc2)CC1	2	-3	3	/	/	-1	i	3
CCOC(=O)c1c(C)[nH]c(C(=O)C(C)OC(=O)c2ccc(NC(=O)CC#N)cc2)c1C (centres undefined)	0	-4	/	-4	-3	26	/	/
O=C(COc1ccc(-c2nnc(N3CCCCC3)c3ccccc23)cc1)N1CCCCC1	11	-11	3	-5	53	/	i	-3
COc1ccc(CN2CCNC(=O)C2CC(=O)NCCC2=CCCCC2)cc1OC (centres undefined)	-4	3	14	/	-21	-24	i	8
CCCCC(=O)Nc1c2c(nn1-c1ccc(C)cc1)CS(=O)(=O)C2	7	3	-9	1	-16	0	i	-1
O=C(CCC1CCCC1)N1CCN(C2CCCC2)CC1	3	5	2	-4	-18	/	i	-10
Cc1ccccc1-c1nc(CN2CCSCC2)c(C)o1	-4	-5	12	-2	/	-2	i	0
CC1CCc2c(sc(NC(=O)COC(=O)c3ccccc3NCc3ccco3)c2C#N)C1 (centres undefined)	4	-2	-2	-16	-1	-38	+	4
CC(C)(C)Sc1nc(O)cc(=O)[nH]1	2	9	-2	/	-4	/	i	-5
O=C(Nc1nnc(Cc2ccccc2)s1)c1cccnc1	-8	-1	-2	/	3	-25	i	-4
CCOC(=O)/C(C#N)=C/c1cc2ccccc2nc1Cl	-2	3	-2	-1	0	/	i	-2
COc1ccc(S(=O)(=O)NNC(=S)NCCc2ccccc2)c(OC)c1	2	3	5	-10	-2	-34	i	0
Additional compounds follow:
SMILES	MT1-MMP act inh	MT1-MMP act inh RFP	PABP polyA inh	UUG fidelity	CSC inhib	HIV Env fusion	Rce1 inh	eIF4H FP inh	others
CCCCCNC(=O)CCn1c(=O)oc2ccccc21	-1	2	-17	/	-1	-73	i	-5
Cc1cc(NC(=O)c2ccc(Cl)cc2)c(C)cc1O	-3	1	-11	/	-5	7	i	-6
CCCS(=O)(=O)N1CCC(C(=O)NCc2ccco2)CC1	2	5	3	-2	1	/	i	9
CN(C(=O)c1cnccn1)c1c(N)n(Cc2ccccc2)c(=O)[nH]c1=O	-2	-2	/	-12	-9	4	i	/
CCCCN1C(=O)N(c2nnc(C(C)(C)C)s2)C(O)C1c1ccc(C)cc1 (centres undefined)	1	0	9	/	-5	-1	i	-10
N=C1C(c2nc3ccccc3s2)=C(O)CN1CCCO	2	0	-15	2	/	/	i	-2
CC(C)n1nnnc1SCC(=O)N1CCN(C(=O)c2ccco2)CC1	3	1	-3	7	-9	-6	i	-5
O=C1/C(=C/c2ccc(O)c(O)c2)Oc2cc(O)ccc21	-36	19	15	-33	-13	/	/	-6
CC(C)NC(=O)Cn1cc(S(=O)(=O)N2CCCC2)c(S(=O)(=O)N2CCCC2)c1	-1	3	-4	-10	11	-1	i	4
Cc1cc(NC(=O)/C(C#N)=C/c2ccc(-c3cccc(C(F)(F)F)c3)o2)n(-c2ccccc2)n1	-2	4	1	/	43	3	i	2
Cc1cn([C@H]2C[C@H](O)[C@@H](/C=C/C(=O)NCCN3CCCCC3)O2)c(=O)[nH]c1=O	3	2	/	-3	/	5	/	/
Cc1nnc(SCCn2c(N3CCN(C)CC3)nc3c2c(=O)n(C)c(=O)n3C)s1	-9	-2	-6	-7	-6	1	i	-3
CN(Cc1cccc(F)c1)C(=O)CSc1nnc(C2CC2)n1C1CC1	-2	-5	/	-10	/	-2	/	/
COc1ccc(OC)c(NC(=S)NC(=O)c2ccc(Br)o2)c1	2	6	11	-16	-12	-3	i	8
CC(=O)Nc1nnc(Cc2ccccc2)s1	-6	-2	-4	-14	/	22	i	-1
CCOC(=O)c1ccc(S(=O)(=O)Nc2ccccc2-c2nnn(CC)n2)cc1	-2	-12	-9	19	/	/	i	-4
COCc1c(C(=O)Nc2ccc(C)c(S(=O)(=O)N3CCOCC3)c2)oc2ccccc12	4	-8	/	0	/	-31	/	/
O=C(N/N=C/c1cccnc1)c1sc2ccccc2c1Cl	-5	-1	2	-15	-9	-3	i	0
CC(OC(=O)c1cccc(-n2cnnn2)c1)C(=O)N(C)c1ccccc1 (centres undefined)	1	2	-12	-15	-12	6	i	-11
Cc1ccc2cc(C3CC(c4ccco4)=NN3C(=O)CCCC(=O)O)c(Cl)nc2c1 (centres undefined)	-2	4	42	-25	-5	14	i	68	eIF4H FP inh retest=33;PABP polyA inh retest=18
O=C(COc1ccccc1Cl)Nc1cc(Cl)ccc1O	1	-2	-10	/	/	-26	i	-3
CCOC(=O)Cn1c(=NC(=O)c2cc(-c3cccs3)nc3ccccc23)sc2cc(S(N)(=O)=O)ccc21	-17	-5	-10	-5	32	-8	i	-5
O=C(Cn1cnc2c(oc3ccccc32)c1=O)NCc1ccco1	2	6	-4	-15	/	-13	i	0
CC1CCN(C(=O)CSC2=NS(=O)(=O)c3cc(F)ccc3N2)CC1	-1	2	/	-16	17	-7	i	/
CC(=O)NC(Cc1ccc(F)c(F)c1)C(=O)NC1CCN(C(=O)c2ccc(Cl)cc2)CC1 (centres undefined)	1	-2	1	-15	-1	-8	i	3
CC(=O)N1CCOc2cc(S(=O)(=O)NC(C)c3ccccc3)c(Cl)cc21 (centres undefined)	-3	-2	8	9	/	-5	i	10
O=C(/C=C/c1ccccc1)NC(=S)N1CCSCC1	-2	-3	-4	/	-4	-2	i	-2
COC(=O)c1ccc(CNC(=O)CN2C(=O)NC(Cc3ccccc3)(c3ccccc3)C2=O)cc1 (centres undefined)	6	3	/	-13	/	-28	/	/
CCCC(=O)Nc1nc2ccc(S(=O)(=O)N3CCCCC3)cc2s1	0	-12	-12	-24	55	-143	i	8
